Source: PubChem
DUX4 txn inh: DUX4-mediated transcription inhibition; 293T-iDUX4 ZSCAN4-Gaussia luciferase reporter, 24 h; hits give low values; activity change, negative = inhibition, % (concentration not given with the values); 37,000 compounds, 0.8% hits;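 active = -10% or lower and over 25 points stronger than a control reporter; inconclusive = -10% or lower with a smaller gap; inactive = above -10%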;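 note: 0% = median of neutral control wells and -100% = median of positive control wells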
DUX4 txn inh difference: also measured in DUX4 txn inh; calls as there; Gaussia minus Italica difference, %; measured here: selective DUX4 reporter inhibition;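 worked out from the two reporters; negative = selective loss of the DUX4 reporter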
DUX4 txn inh control: further read-out of DUX4 txn inh, marked with its call; activity change, negative = inhibition, %; measured here: Italica tet-on control reporter;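 0 = neutral control and -100 = positive control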
* = called active by the depositor; u = inconclusive; x = not tested or not shown. Only part of the results is shown; the hit share may differ from the screen's.

1	COc1ccc2c3c(n(C)c2c1)[C@@H](CO)NCC31CCN(C(C)=O)CC1
2	CCS(=O)(=O)N1CC2(C1)[C@H](c1ccccc1)[C@H](CO)N2C(=O)C1CCCC1
3	CC(C)C#Cc1ccc([C@@H]2[C@@H](CO)N3C(=O)CN(C(=O)c4ccccn4)C[C@@H]23)cc1
4	CN1C(=O)c2cc(NC(=O)c3cccs3)ccc2OC[C@H]2O[C@@H](CC(=O)Nc3ccc4c(c3)COC4)CC[C@@H]21
5	COc1ccc(-c2ccc3n(c2=O)C[C@H]2[C@H](CO)[C@@H](C(=O)N(C)C)[C@@H]3N2Cc2ccncc2)cc1
6	O=C(c1cccc(F)c1)N1CC2(C1)[C@H](c1ccccc1)[C@@H](CO)N2C(=O)C1CCCC1
Screen / compound no.	1	2	3	4	5	6
DUX4 txn inh	6.3	-6.4	-3.0	-1.5	-4.6	-6.6
DUX4 txn inh difference	-9.5	-4.4	4.2	-4.1	-3.8	-2.8
DUX4 txn inh control	15.8	-1.9	-7.1	2.6	-0.8	-3.8

7	COC(=O)C[C@H]1C=C[C@H](N)[C@H](CO)O1
8	CO[C@@H]1CN(C)C(=O)c2cc(NS(=O)(=O)c3ccc(F)cc3)ccc2OC[C@H](C)NC[C@@H]1C
9	C[C@H](O)C#Cc1ccc([C@@H]2[C@@H](CO)N3CCCCN(S(=O)(=O)c4ccccc4)C[C@@H]23)cc1
10	CCNC(=O)C[C@H]1CC[C@@H]2[C@H](COC[C@@H](O)CN2Cc2ccncc2)O1
11	CCC(=O)N1[C@@H]2c3ccc(-c4ccccc4OC)c(=O)n3C[C@@H]2[C@@H](CO)[C@@H]1C(=O)NCCCN(C)C
12	O=C(C[C@H]1CC[C@@H]2[C@H](COC[C@@H](O)CN2CCc2ccccc2)O1)NCc1ccc(F)cc1
Screen / compound no.	7	8	9	10	11	12
DUX4 txn inh	6.4	0.8	u	13.1	9.4	4.0
DUX4 txn inh difference	5.4	1.3	x	11.0	6.7	8.0
DUX4 txn inh control	1.0	-0.4	x	2.1	2.7	-4.0

13	CC(C)NC(=O)N1C[C@@H]2[C@H](c3ccccc31)[C@@H](CO)N2C(=O)c1cccnc1
14	CCC(=O)NC[C@@H]1[C@@H](c2ccc(-c3ccc(F)cc3)cc2)[C@@H](CO)N1C(=O)CC
15	COc1ccc2c3c(n(C)c2c1)[C@H](CO)N(S(C)(=O)=O)CC31CCN(C(=O)C2CCCC2)CC1
16	COc1ccc(-c2ccc3c(c2)[C@H]2[C@H](CCN2S(=O)(=O)C2=NC(C)C=N2)[C@@H](CO)N3C)cc1 (stereo partly drawn)
17	CC(C)NC(=O)N(C)C[C@@H]1Oc2cc(C#Cc3ccccn3)ccc2S(=O)(=O)N([C@H](C)CO)C[C@H]1C
18	CCCC#Cc1ccc([C@H]2[C@@H](CO)N3C(=O)CN(C(=O)CN4CCOCC4)C[C@@H]23)cc1
Screen / compound no.	13	14	15	16	17	18
DUX4 txn inh	0.4	-4.4	-2.0	23.3	-1.8	7.2
DUX4 txn inh difference	-0.9	-0.7	-2.3	10.1	-1.4	-7.6
DUX4 txn inh control	1.2	-3.6	0.3	13.2	-0.4	14.8

19	CCNC(=O)C[C@H]1CC[C@@H]2[C@H](COC[C@@H](O)CN2C(=O)c2cc(Cl)cc(Cl)c2)O1
20	CC(C)CC#Cc1cnc2c(c1)C(=O)N([C@H](C)CO)C[C@@H](C)[C@H](CN(C)C(=O)c1cccnc1)O2
21	C[C@@H](NC(=O)C[C@H]1CC[C@H]2[C@@H](COC[C@H](O)CN2C)O1)c1ccccc1
22	C=C(C)C[C@H]1CCn2cc(nn2)COCCNC1=O
23	C[C@H]1CN([C@@H](C)CO)C(=O)c2ccccc2-c2ccccc2CO[C@@H]1CN(C)S(=O)(=O)c1ccsc1
24	COc1ccc2c3c([nH]c2c1)[C@@H](CO)N(C(C)=O)CC31CCN(S(=O)(=O)c2ccccc2)CC1
Screen / compound no.	19	20	21	22	23	24
DUX4 txn inh	7.8	-2.1	4.1	-6.5	-1.1	4.4
DUX4 txn inh difference	4.0	-1.9	3.0	-3.8	-3.5	2.8
DUX4 txn inh control	3.8	-0.2	1.0	-2.7	2.3	1.6

25	CCCNC(=O)N1[C@@H]2c3ccc(-c4cccc(OC)c4)c(=O)n3C[C@H]1[C@H](CO)[C@H]2C(=O)NC1CCC1
26	O=C(C[C@@H]1C=C[C@H](NC(=O)Nc2ccc3c(c2)OCO3)[C@H](CO)O1)NCCCN1CCOCC1
27	COc1ccc(NC(=O)N(C)C[C@H]2Oc3ccc(NC(=O)C4CCCCC4)cc3CC(=O)N([C@H](C)CO)C[C@@H]2C)cc1
28	COc1ccc(NC(=O)Nc2ccc3c(c2)C(=O)N([C@H](C)CO)C[C@H](C)[C@@H](CN(C)S(=O)(=O)c2cccs2)OCCCC[C@@H](C)O3)cc1
29	Fc1cccc(CN2[C@@H]3CNC[C@H]2C3c2ccc(-c3ccccc3)cc2)c1 (stereo partly drawn)
30	C[C@H](CO)N1C[C@H](C)[C@H](CN(C)Cc2ccc3c(c2)OCO3)OCc2cnnn2CCCC1=O
Screen / compound no.	25	26	27	28	29	30
DUX4 txn inh	-2.9	-0.2	-3.5	-0.9	16.0	-1.7
DUX4 txn inh difference	-1.7	0.2	-4.8	-2.4	1.4	-1.5
DUX4 txn inh control	-1.2	-0.4	1.3	1.5	14.7	-0.2

31	Cc1ccccc1-c1ccc([C@@H]2[C@H](CO)N3C(=O)CN(C(=O)c4cccnc4)C[C@@H]23)cc1
32	CNC[C@@H]1Oc2ccc(NC(=O)Cn3cnnn3)cc2C(=O)N([C@@H](C)CO)C[C@H]1C
33	CCS(=O)(=O)NCC[C@@H]1CC[C@@H](NC(=O)Nc2cc(Cl)cc(Cl)c2)[C@@H](CO)O1
34	O=C(c1ccccn1)N1[C@@H](CO)[C@@H](c2ccccc2)C12CN(Cc1ccccc1F)C2
35	COCCNC(=O)C[C@H]1C[C@H]2c3cc(NC(=O)Nc4ccccc4F)ccc3O[C@H]2[C@@H](CO)O1
36	CN(C)C(=O)c1ccc(-c2ccc3c(c2)[C@H]2[C@H](CCN2C(=O)C2CCOCC2)[C@@H](CO)N3C)cc1
Screen / compound no.	31	32	33	34	35	36
DUX4 txn inh	4.5	0.3	-3.5	4.0	5.8	10.1
DUX4 txn inh difference	-2.3	1.5	-5.2	3.4	1.2	5.8
DUX4 txn inh control	6.9	-1.2	1.6	0.6	4.5	4.3

4 entries already listed, sorted by SMILES length, low to high:
32	CNC[C@@H]1Oc2ccc(NC(=O)Cn3cnnn3)cc2C(=O)N([C@@H](C)CO)C[C@H]1C
30	C[C@H](CO)N1C[C@H](C)[C@H](CN(C)Cc2ccc3c(c2)OCO3)OCc2cnnn2CCCC1=O
35	COCCNC(=O)C[C@H]1C[C@H]2c3cc(NC(=O)Nc4ccccc4F)ccc3O[C@H]2[C@@H](CO)O1
36	CN(C)C(=O)c1ccc(-c2ccc3c(c2)[C@H]2[C@H](CCN2C(=O)C2CCOCC2)[C@@H](CO)N3C)cc1
Screen / compound no.	32	30	35	36
DUX4 txn inh	0.3	-1.7	5.8	10.1
DUX4 txn inh difference	1.5	-1.5	1.2	5.8
DUX4 txn inh control	-1.2	-0.2	4.5	4.3

The listing continues.
37	CCCNC(=O)C[C@@H]1CC[C@H]2[C@@H](COC[C@@H](O)CN2C(=O)c2ccc(F)cc2)O1
38	O=C(C[C@H]1CC[C@@H]2[C@H](COC[C@@H](O)CN2Cc2cc(F)ccc2F)O1)NCc1ccccc1
39	O=C([C@H]1[C@H](CO)[C@H]2Cn3c(cccc3=O)[C@@H]1N2S(=O)(=O)c1ccccc1F)N1CCCCC1
40	CN(C)C(=O)c1ccc(-c2ccc(C3[C@@H]4CN(C(=O)Nc5ccc(Cl)cc5)C[C@H]3N4)cc2)cc1 (stereo partly drawn)
41	O=C(C[C@@H]1CC[C@@H]2[C@H](COC[C@H](O)CN2S(=O)(=O)c2ccccc2Cl)O1)NCc1ccccc1Cl
42	C[C@@H](NC(=O)[C@H]1[C@H](CO)[C@H]2Cn3c(ccc(-c4ccncc4)c3=O)[C@@H]1N2C)c1ccccc1
Screen / compound no.	37	38	39	40	41	42
DUX4 txn inh	6.3	18.3	2.8	16.1	-3.0	0.6
DUX4 txn inh difference	-1.7	16.3	3.8	6.1	-4.2	0.7
DUX4 txn inh control	8.0	2.0	-1.0	10.1	1.2	-0.2

The results go on.
nr | molecule | DUX4 txn inh | DUX4 txn inh difference | DUX4 txn inh control
43 | COc1ccc(S(=O)(=O)Nc2ccc3c(c2)CC(=O)N([C@@H](C)CO)C[C@@H](C)[C@@H](CN(C)C(=O)Nc2c(C)noc2C)O3)cc1 | 4.0 | -0.3 | 4.2
44 | COc1cccc(NC(=O)N2CC(=O)N3[C@H](CO)[C@@H](c4ccc(C#CCC5CCCC5)cc4)[C@H]3C2)c1 | 6.1 | 14.8 | -8.7
45 | CN1CCN(C(=O)C[C@H]2C[C@H]3c4cc(NC(=O)C5CCC5)ccc4O[C@H]3[C@H](CO)O2)CC1 | 7.4 | 2.8 | 4.6
46 | CN(C)C(=O)c1cccc(-c2ccc([C@H]3[C@H](CO)N4C(=O)CN(C(=O)Cc5ccccc5)C[C@@H]34)cc2)c1 | 12.2 | 8.1 | 4.1
47 | Cc1ccccc1S(=O)(=O)N1CCCCN2[C@H](CO)[C@H](c3ccc(-c4cccc(F)c4)cc3)[C@@H]2C1 | u | x | x
48 | CC(=O)N1CC2(C1)[C@@H](c1ccccc1)[C@@H](CO)N2Cc1cc(F)ccc1F | -0.8 | -3.1 | 2.3
49 | COc1ccc(NC(=O)Nc2cccc3c2O[C@@H](CN(C)C(=O)NC2CCCCC2)[C@@H](C)CN([C@@H](C)CO)C3=O)cc1 | -0.4 | -3.9 | 3.5
50 | C[C@@H]1CN([C@@H](C)CO)C(=O)c2cc(NS(=O)(=O)c3ccc(Cl)cc3)ccc2O[C@@H](C)CCCCO[C@H]1CN(C)C(=O)CCCN(C)C | 2.2 | 0.8 | 1.3
51 | CCNC(=O)C[C@H]1CC[C@H]2[C@H](COc3ccc(NC(=O)c4ccc5c(c4)OCO5)cc3C(=O)N2C)O1 | 1.6 | 3.4 | -1.8
52 | C[C@@H]1CN([C@@H](C)CO)C(=O)c2cc(NC(=O)CCC(F)(F)F)ccc2O[C@@H](C)CCCCO[C@H]1CN(C)Cc1ccc2c(c1)OCO2 | -1.4 | 0.8 | -2.2
53 | CN1CCN(C(=O)C[C@H]2CC[C@H]3[C@@H](COC[C@@H](O)CN3Cc3cccc(F)c3)O2)CC1 | 7.6 | 8.7 | -1.1
54 | CNC[C@H]1OCCCC[C@H](C)Oc2ccc(NC(=O)Nc3c(C)noc3C)cc2C(=O)N([C@H](C)CO)C[C@H]1C | 0.1 | 2.6 | -2.5
55 | C[C@@H]1CN([C@H](C)CO)C(=O)c2cc(NC(=O)Nc3cccc4ccccc34)ccc2O[C@@H](C)CCCCO[C@@H]1CN(C)S(=O)(=O)c1cn(C)cn1 | 1.0 | -9.4 | 10.4
56 | Cc1ccc(S(=O)(=O)Nc2cccc3c2O[C@@H](CN(C)C(=O)Nc2ccc(C(F)(F)F)cc2)[C@H](C)CN([C@@H](C)CO)C3=O)cc1 | 3.3 | 0.7 | 2.6
57 | COc1ccc2c3c(n(C)c2c1)[C@H](CO)N(CC1CC1)CC31CN(Cc2ccc(F)cc2)C1 | -3.5 | -6.4 | 2.9
58 | O=C(c1ccccc1)N1CC2(C1)[C@@H](c1ccccc1)[C@H](CO)N2CC1CC1 | 3.0 | 1.0 | 2.0
59 | COc1ccc(S(=O)(=O)N2C[C@@H](O)COC[C@H]3O[C@@H](CC(=O)NCCN4CCCCC4)CC[C@@H]32)cc1 | -6.7 | -5.1 | -1.6
60 | COc1ccc(C#Cc2cnc3c(c2)C(=O)N([C@H](C)CO)C[C@H](C)[C@H](CN(C)S(=O)(=O)c2ccc(F)cc2)O3)cc1OC | 0.8 | -2.0 | 2.8
61 | COC(=O)C[C@@H]1CC[C@@H]2[C@@H](COc3ccc(NC(=O)c4cccc(F)c4)cc3C(=O)N2C)O1 | -0.2 | 0.6 | -0.8
62 | COc1ccc(C#Cc2ccc([C@H]3[C@@H](CO)N4C(=O)CN(C(=O)c5cccnc5)C[C@@H]34)cc2)cc1 | 1.8 | -5.6 | 7.4
63 | C[C@@H]1CN([C@H](C)CO)C(=O)c2c(c3ccccc3n2C)-c2ccccc2CO[C@H]1CN(C)S(=O)(=O)c1cccs1 | -1.1 | -1.4 | 0.3
64 | CCN(C[C@H]1[C@H](c2ccccc2)[C@@H](CO)N1C(C)=O)C(=O)NC(C)C | -1.0 | 4.4 | -5.4
65 | CN(C)C(=O)c1cccc(-c2ccc3c(c2)[C@H]2[C@H](CCN2C(=O)c2ccc(F)cc2)[C@@H](CO)N3C)c1 | u | x | x
66 | CNC(=O)C[C@@H]1CC[C@H]2[C@@H](COc3ccc(NC(=O)Nc4ccccc4F)cc3C(=O)N2C)O1 | 0.7 | 2.3 | -1.5
67 | C[C@H](NC(=O)C[C@@H]1C[C@@H]2c3cc(NC(=O)NC4CCCCC4)ccc3O[C@@H]2[C@@H](CO)O1)c1ccccc1 | 1.6 | 0.3 | 1.3
68 | C[C@@H]1CN([C@@H](C)CO)C(=O)c2cc(-c3ccc(C#N)cc3)cnc2O[C@H]1CN(C)C(=O)CC1CC1 | 0.1 | -3.7 | 3.8
69 | CC(C)NC(=O)N(C)C[C@H]1Oc2ccc(NC(=O)Cc3ccccc3)cc2CC(=O)N([C@@H](C)CO)C[C@H]1C | 1.5 | 5.0 | -3.5
70 | COc1cccc(NC(=O)C[C@H]2CC[C@@H]3[C@H](COc4ccc(NS(=O)(=O)c5cccc(F)c5)cc4C(=O)N3C)O2)c1 | -0.3 | 0.3 | -0.5

One compound at a time, from the list above:
Cc1ccccc1S(=O)(=O)N1CCCCN2[C@H](CO)[C@H](c3ccc(-c4cccc(F)c4)cc3)[C@@H]2C1 as listed: DUX4 txn inh: u; DUX4 txn inh difference: x; DUX4 txn inh control: x
CCNC(=O)C[C@H]1CC[C@H]2[C@H](COc3ccc(NC(=O)c4ccc5c(c4)OCO5)cc3C(=O)N2C)O1 as listed: DUX4 txn inh: 1.6; DUX4 txn inh difference: 3.4; DUX4 txn inh control: -1.8
